SARS PLP yeast: SARS-CoV PLP inhibition in yeast; S. cerevisiae expressing SARS-CoV PLpro, growth rescue; control for the full effect not named in the record; Potency, µM (top dose mostly 32.9 µM), for inactives: top-dose activity, positive = growth rescue; actives 0.19% (n = 330,000); AID 485353; also: 0% is about no effect; nearly all actives have a fitted effect of over 55% in size; growth read by luminescence after 48 h
Cruzain Triton: cruzain (T. cruzi) inhibition with detergent; P25779; purified cruzain, Z-FR-AMC fluorescence, 0.01% Triton; Potency, µM, for the others: max response, negative = inhibition, actives largely listed as inhibitors; actives 0.43% (n = 200,000); AID 1478; active = well fitted curve in the direction sought with a large enough effect; inconclusive = small, poorly fitted or top-dose-only effect, or another doubt; inactive = no such curve, though single readings can be large; an effect the other way counts as inactive or inconclusive;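 also: plate controls were neutral wells for no effect and buffer without enzyme for full effect; nearly all actives have a fitted effect of over 40% in size; top concentration of the series not given in the record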
Target sequence (P25779 123-467 limits assumed): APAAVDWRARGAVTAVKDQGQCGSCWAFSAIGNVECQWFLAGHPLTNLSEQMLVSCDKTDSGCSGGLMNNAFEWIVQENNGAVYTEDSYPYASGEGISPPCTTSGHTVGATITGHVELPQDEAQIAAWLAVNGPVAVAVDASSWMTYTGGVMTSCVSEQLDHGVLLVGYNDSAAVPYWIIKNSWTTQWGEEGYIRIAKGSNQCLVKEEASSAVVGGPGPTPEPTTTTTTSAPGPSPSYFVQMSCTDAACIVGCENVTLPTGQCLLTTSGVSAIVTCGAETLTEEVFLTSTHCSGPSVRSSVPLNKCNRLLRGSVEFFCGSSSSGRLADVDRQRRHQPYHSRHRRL
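Z-FR-AMC hydrolysis (2 uM substrate) by cruzain (1.5 nM) monitored kinetically at ex 360/em 450 nm after 15 min room-temperature compound exposure; 0.01% Triton X-100, pH 5.5, 5 mM DTT.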
2A StopGo: lowers the luciferase signal of an FMDV 2A StopGo reporter; human cells with a luciferase reporter of 2A StopGo recoding; control for the full effect not named in the record; actives 1.2% (n = 410,000); AID 1159524; Potency, µM (titrated, usually from 57.9 µM), for the others: at the top dose signal change, negative = less light; active = well fitted falling curve with a large enough effect; inconclusive = small, poorly fitted or top-dose-only effect; inactive = no such curve, though single readings can be large or run the other way; tested in HEK293T cells; also: % is scaled to controls: 0 for no effect and ±100 for the full control effect; nearly all actives have a fitted effect of over 45% in size; luciferase light after 4 h
LASV entry inh: blocks Lassa virus binding to or entry into cells. Lassa virus pseudotype entry inhibition, cell reporter; control for the full effect not named in the record. Potency, µM (highest dose often 37.9 µM), for inactives: at the highest dose activity change, negative = inhibition, actives largely listed as inhibitors. actives 1.2% (n = 300,000). AID 540256; active means well fitted inhibition curve with a large enough effect; inconclusive means small, poorly fitted or top-dose-only effect, or effect the other way; inactive means flat fitted curve, though single readings scatter; tested in HEK293 cells; also: % is scaled to controls: 0 for no effect and ±100 for the full control effect; nearly all actives have a fitted effect of over 50% in size; luciferase read-out
Cruzain noTriton: cruzain (T. cruzi) inhibition without detergent | P25779 | purified cruzain, Z-FR-AMC fluorescence, no detergent | Potency, µM, for inactives: max response, negative = inhibition, actives largely listed as inhibitors | actives 2.3% (n = 200,000) | AID 1476; active = well fitted curve in the direction sought with a large enough effect; inconclusive = small, poorly fitted or top-dose-only effect, or another doubt; inactive = no such curve, though single readings can be large; an effect the other way counts as inactive or inconclusive;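 also: plate controls were enzyme without inhibitor for no effect and buffer without enzyme for full effect; nearly all actives have a fitted effect of over 40% in size; top concentration of the series not given in the record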
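Purified cruzain at 1.5 nM, pre-incubated 15 min with compound at room temperature in 100 mM sodium acetate pH 5.5, 5 mM DTT, 0.00005% Triton X-100. Reaction started with 2 uM Z-FR-AMC; AMC fluorescence increase over 60 s gives rate.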
RE007 growth inh: less growth of the S. pombe RE007 Vpr strain; S. pombe RE007 Vpr strain, BacTiter-Glo ATP luminescence, 24 h; control for the full effect not named in the record; Potency, µM (highest dose often 92.2 µM), for inactives: top-dose activity change, negative = less growth; actives 0.21% (n = 360,000); active = well fitted falling curve with a large enough effect; inconclusive = small, poorly fitted or top-dose-only effect; inactive = no such curve, though single readings can be large or run the other way;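 also: % is scaled to controls: 0 for no effect and ±100 for the full control effect; nearly all actives have a fitted effect of over 50% in size; the assay follows cell death caused by Vpr and the record does not say whether a fall means rescue or toxicity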
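Fission yeast strain RE007, carrying one chromosomally integrated HIV-1 vpr copy, was seeded at OD 0.01 in PMG+AL medium with 23 nL pinned compound. After 24 h at 30 °C and 99% humidity, viability was read by BacTiter-Glo luminescence.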
Marburg entry inh: blocks Marburg virus binding to or entry into cells | Marburg virus pseudotyped entry inhibition, cell reporter; control for the full effect not named in the record; about a third of the inactives were read at about 46 µM | Potency, µM (titrated, usually from 37.8 µM), inactives show at the top dose activity change, negative = inhibition, most hits filed as inhibitors | actives 1.8% (n = 300,000); active = well fitted inhibition curve with a large enough effect; inconclusive = small, poorly fitted or top-dose-only effect, or effect the other way; inactive = flat fitted curve, though single readings scatter; tested in HEK293 cells; about a fifth of its hits are not listed in these tables; also: % is scaled to controls: 0 for no effect and ±100 for the full control effect; luciferase read-out
NS1 function inh: blocks influenza NS1 protein function. S. cerevisiae slowed by influenza A NS1, growth recovery by OD600. Potency, µM (titrated, usually from 46.1 µM), for inactives: top-dose activity, positive = more growth. actives 0.4% (n = 270,000). AID 2326; also: actives are rising curves; nearly all actives have a fitted effect of over 50% in size
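Compounds were scored for reversing the slow growth caused by influenza A NS1 in S. cerevisiae, measured by optical density at 600 nm. Assay medium contained 2% galactose at pH 6.0; NS1-free yeast of the same strain were the positive control.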
The depositor's hits bear a star; u = inconclusive; x = not tested or not shown; [ ] = remark or other dose. Unless noted, calls follow the shape of the dose curve; as a rule, active means well fitted rising curve with a large enough effect; inconclusive means small, poorly fitted or top-dose-only effect; inactive means no such curve, though single readings can be large or run the other way. Potency is read from the fitted curve at half-maximal effect.

item | Structure | SARS PLP yeast | Cruzain Triton | 2A StopGo | LASV entry inh
1 | CN(CC(=O)Nc1c(Cl)cccc1Cl)C(=O)c1ccncc1 | -4.4% | x | 45.3%[activator] | 6.4%[46.1 µM]
2 | CN(CC(=O)Nc1ccc(F)c(F)c1F)C(=O)CCN1C(=O)C2CCCCC2C1=O (stereo unspecified) | 5.0% | x | -10.6% | -1.8%
3 | CCOC(=O)C1=CC(=C2C(=O)N(CC)C(=S)N(CC)C2=O)c2ccccc2O1 | -5.3% | x | -2.1% | 8.5%
4 | COc1ccc(CCNC(=O)CSc2n[nH]c(N)n2)cc1 | 0.0% | x | 30.0% | 2.9%[46.1 µM]
5 | CCOC(=O)C1=C(N)Oc2cc(C)n(CCc3ccc(OC)c(OC)c3)c(=O)c2C1c1cccnc1 (stereo unspecified) | 2.8% | -2.0% | u | u
6 | CCOC(=O)N1CCC(NC(=O)c2cc3c(-c4ccc(Cl)cc4)nn(C)c3s2)CC1 | 5.7% | -1.9% | -16.5% | x
7 | CCCCOC(=O)/C=C\C(=O)OCCCC | 1.4% | x | -32.0% | x
8 | Cc1ccc(-c2noc(CCC(=O)NC3CC3)n2)cc1 | 7.9% | x | 28.3% | -19.3%

item | Cruzain noTriton | RE007 growth inh | Marburg entry inh | NS1 function inh
1 | x | -14.4% | 18.5%[46.1 µM] | 9.1%
2 | x | -12.6% | -9.7% | x
3 | x | -8.2% | 12.5% | x
4 | x | -3.1% | 2.0%[46.1 µM] | 4.6%
5 | 4.9% | -5.5% | u | -33.1%
6 | -8.0% | -6.1% | x | -3.9%
7 | x | 0.1% | x | -0.7%
8 | x | 5.3% | 10.1%[46.1 µM] | -25.5%

Carrying on.
item | Structure | SARS PLP yeast | Cruzain Triton | 2A StopGo | LASV entry inh
9 | CCN(CC)C(=O)CSc1nc2ccccc2c(=O)n1CC1CCCCC1 | 3.4% | -4.2% | -14.6% | u
10 | Cc1ccc2c(c1)C(=O)OC(C(=O)Nc1ncc(Cc3ccc(Cl)cc3)s1)C2 (stereo unspecified) | x | 0.3% | -4.0% | 8.5%[46.1 µM]
11 | CCOc1ccc(C(=O)Nc2cc(C)ccn2)cc1 | -13.7% | x | -87.8% | u
12 | Cc1cc(C)c(NC(=O)COC(=O)C2CCN(c3ccc(C(F)(F)F)cn3)CC2)c(Cl)c1 | -2.8% | x | -1.1% | 25.0%
13 | CCOc1ccc(C(=O)N2CCCC(c3nc(-c4cccs4)no3)C2)cc1 (stereo unspecified) | -1.0% | x | -23.9% | u
14 | CC(C)n1c(N)c(C#N)c2ccc([N+](=O)[O-])cc2c1=O | -0.2% | x | -26.9% | x
15 | COc1ccc(C(=O)N(Cc2sccc2C)C2CCS(=O)(=O)C2)cc1Cl (stereo unspecified) | x | -3.4% | -10.9% | 10.8%[46.1 µM]
16 | O=C(CN1C(=O)/C(=C\c2ccccc2Cl)Oc2ccccc21)NCc1cccnc1 | 3.9% | x | -12.7% | -7.2%

item | Cruzain noTriton | RE007 growth inh | Marburg entry inh | NS1 function inh
9 | 13.6% | 32.2% | u | -10.8%
10 | 1.4% | x | -11.7%[46.1 µM] | x
11 | x | 39.8µM* | u | x
12 | x | 6.4% | 1.3% | x
13 | x | 22.1% | -4.4% | -33.6%
14 | x | 10.5% | x | 2.2%
15 | -4.3% | x | -15.6%[46.1 µM] | x
16 | x | 11.8% | 13.4%[46.1 µM] | x

Single entries from the list.
`CCN(CC)C(=O)CSc1nc2ccccc2c(=O)n1CC1CCCCC1` in NS1 function inh has -10.8%
`CCOc1ccc(C(=O)N2CCCC(c3nc(-c4cccs4)no3)C2)cc1` (stereo unspecified) in NS1 function inh has -33.6%
`Cc1cc(C)c(NC(=O)COC(=O)C2CCN(c3ccc(C(F)(F)F)cn3)CC2)c(Cl)c1` in RE007 growth inh has 6.4%

New compounds follow:
item | Structure | SARS PLP yeast | Cruzain Triton | 2A StopGo | LASV entry inh
17 | CC(C)OC(=O)NC(C)(C)COC(=O)Nc1cccc(Cl)c1 | -4.4% | -5.5% | -16.7% | 6.3%
18 | CC(C)c1ccc(NS(=O)(=O)c2cc(Br)cc3c2N(C(=O)C2CC2)CC3)cc1 | x | -0.4% | -26.1% | -22.3%[46.1 µM]
19 | Clc1ccc(CSc2nnc(CN3CCOCC3)n2-c2ccccc2)cc1Cl | -1.0% | 5.8% | u | -16.5%
20 | CCCCCn1nc(C(=O)OCc2nnc(-c3ccccc3)o2)c2ccccc2c1=O | 3.5% | x | 2.1% | 6.0%[46.1 µM]
21 | COc1ccc(/C=N/NC(=O)c2cc[n+]([O-])cc2)cc1OC | 1.2% | x | -7.6% | -9.0%
22 | CCOc1ccc(CNC(=O)c2ccc(CS(=O)c3ccccc3)o2)cc1 (stereo unspecified) | x | -3.2% | -5.5% | u
23 | Cc1cccc(N2CCN(C(=O)c3cc4c(=O)oc5ccccc5c4s3)CC2C)c1 (stereo unspecified) | x | -1.1% | -26.8% | -9.7%[46.1 µM]
24 | COc1cccc(CN(C)C(=O)CCNC(=O)c2ccc(Br)cc2)c1 | -2.4% | x | -20.5% | -17.7%

item | Cruzain noTriton | RE007 growth inh | Marburg entry inh | NS1 function inh
17 | -5.4% | -10.6% | -3.5% | -20.5%
18 | -7.5% | x | u | x
19 | u | -8.3% | -18.0% | -64.9%
20 | x | 8.1% | u | x
21 | x | -3.4% | 19.6%[46.1 µM] | -3.4%
22 | 19.1% | x | x | x
23 | -3.6% | x | -3.8%[46.1 µM] | x
24 | x | -7.9% | -1.5% | -9.9%

(listing goes on)
item | Structure | SARS PLP yeast | Cruzain Triton | 2A StopGo | LASV entry inh
25 | Cc1cc2oc(C(=O)Nc3nonc3C)c(C)c2cc1C | 3.4% | x | 37.4%[activator] | x
26 | COc1ccc(CCNC(=O)COC(=O)c2ccc(N3CCCC3=O)cc2)cc1OC | 0.2% | x | u | x
27 | CN1CCN(C(=O)c2ccccc2-c2nc(-c3ccc(Cl)cc3)no2)CC1 | 2.5% | -6.9% | x | -2.2%
28 | CCOc1ccc(NC(=O)c2ccc(-c3ccccc3)s2)cc1 | x | -1.2% | 26.5% | 18.1%[46.1 µM]
29 | Cc1cc(OCC(=O)NCC(O)c2ccccc2)c2c3c(c(=O)oc2c1)CCC3 (stereo unspecified) | -5.7% | x | -18.8% | x
30 | CCOc1cc(S(=O)(=O)NC2CC(C)(C)NC(C)(C)C2)ccc1F | -4.6% | -1.6% | 22.1% | -22.5%
31 | Cc1ccc(NC(=O)CCc2c(C)nc3cc(-c4ccccc4)nn3c2C)cc1F | x | 0.4% | -21.3% | -9.5%[46.1 µM]

item | Cruzain noTriton | RE007 growth inh | Marburg entry inh | NS1 function inh
25 | x | -7.3% | x | 2.6%
26 | x | -19.3% | -9.3%[46.1 µM] | x
27 | -10.0% | -19.1% | u | -41.2%
28 | 7.0% | x | -3.1%[46.1 µM] | x
29 | x | 0.3% | x | 7.3%
30 | -8.5% | 1.6% | -25.2% | 4.7%
31 | 14.7% | x | -23.1%[46.1 µM] | x

Reprinted at random: seven records from the list
item | Structure | SARS PLP yeast | Cruzain Triton | 2A StopGo | LASV entry inh
26 | COc1ccc(CCNC(=O)COC(=O)c2ccc(N3CCCC3=O)cc2)cc1OC | 0.2% | x | u | x
27 | CN1CCN(C(=O)c2ccccc2-c2nc(-c3ccc(Cl)cc3)no2)CC1 | 2.5% | -6.9% | x | -2.2%
25 | Cc1cc2oc(C(=O)Nc3nonc3C)c(C)c2cc1C | 3.4% | x | 37.4%[activator] | x
31 | Cc1ccc(NC(=O)CCc2c(C)nc3cc(-c4ccccc4)nn3c2C)cc1F | x | 0.4% | -21.3% | -9.5%[46.1 µM]
29 | Cc1cc(OCC(=O)NCC(O)c2ccccc2)c2c3c(c(=O)oc2c1)CCC3 (stereo unspecified) | -5.7% | x | -18.8% | x
30 | CCOc1cc(S(=O)(=O)NC2CC(C)(C)NC(C)(C)C2)ccc1F | -4.6% | -1.6% | 22.1% | -22.5%
28 | CCOc1ccc(NC(=O)c2ccc(-c3ccccc3)s2)cc1 | x | -1.2% | 26.5% | 18.1%[46.1 µM]

item | Cruzain noTriton | RE007 growth inh | Marburg entry inh | NS1 function inh
26 | x | -19.3% | -9.3%[46.1 µM] | x
27 | -10.0% | -19.1% | u | -41.2%
25 | x | -7.3% | x | 2.6%
31 | 14.7% | x | -23.1%[46.1 µM] | x
29 | x | 0.3% | x | 7.3%
30 | -8.5% | 1.6% | -25.2% | 4.7%
28 | 7.0% | x | -3.1%[46.1 µM] | x
